# ClpP mod: qHTS Assay for Activators of ClpP | ATP-dependent Clp protease proteolytic subunit (Bacillus subtilis (strain 168)), P80244 | AID 651965, 2013 | purified B. subtilis ClpP, FRET peptide cleavage, 20 min | 1.9% of 340,000 active | Potency, µM (series often up to 57.5 µM), without a hit: top-dose activity change, negative = active; active = well fitted falling curve with a large enough effect; inconclusive = small, poorly fitted or top-dose-only effect; inactive = no such curve, though single readings can be large or run the other way; also: potency is read from the fitted curve at half-maximal effect; the source files actives as falling curves though it sought activators and does not explain the sign; nearly all actives have a fitted effect of over 65% in size; many hits overshoot -100%
# Target sequence (P80244 whole entry, looked up): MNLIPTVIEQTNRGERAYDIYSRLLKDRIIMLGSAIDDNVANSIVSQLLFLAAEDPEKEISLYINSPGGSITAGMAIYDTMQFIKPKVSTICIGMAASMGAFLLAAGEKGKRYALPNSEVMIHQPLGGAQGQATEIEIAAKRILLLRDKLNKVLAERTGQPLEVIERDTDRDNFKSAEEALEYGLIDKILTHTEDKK
#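 FRET quenching reversal measured ClpP activation: 10 microg/mL B. subtilis ClpP at pH 8 with the FRET-FV decapeptide, read at 430 nm after 320 nm excitation. The 20-min minus 0-min signal was scaled between DMSO/no-enzyme wells and ADEP (5.8 microM final).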
# Menin-MLL FL inh: inhibitors of human menin-MLL interaction, wild-type MLL peptide. 290,000 tested, under 10 active. FP activity change, % at 61.4 µM. Fluorescence polarization, fluorescein-MLL peptide displacement from menin; inconclusive = falling polarisation curve, or a change in total fluorescence; inactive = total fluorescence flat and polarisation flat or rising; no compound was filed as active; the % refers to the polarisation; negative = inhibition;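 also: % of control where 0% means no effect; inhibitors lower the polarisation; unlabelled MLL peptide was the positive control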
# TRPML1 ag: agonists of human TRPML1 channel; TRPML1-expressing cells, Ca2+ dye fluorescence, FDSS; host cell line not named in the record; reference of the full effect not given here; Q9GZU1; AID 624414; 0.12% of 410,000 active; activation, % (concentration not given with the values); in the data active = activation above about 50%; inconclusive = about 30% to 50%; inactive = below about 30%; also: 0% is about no effect; the text of the record puts the active cut at 80%
# Target sequence (Q9GZU1 whole entry, looked up): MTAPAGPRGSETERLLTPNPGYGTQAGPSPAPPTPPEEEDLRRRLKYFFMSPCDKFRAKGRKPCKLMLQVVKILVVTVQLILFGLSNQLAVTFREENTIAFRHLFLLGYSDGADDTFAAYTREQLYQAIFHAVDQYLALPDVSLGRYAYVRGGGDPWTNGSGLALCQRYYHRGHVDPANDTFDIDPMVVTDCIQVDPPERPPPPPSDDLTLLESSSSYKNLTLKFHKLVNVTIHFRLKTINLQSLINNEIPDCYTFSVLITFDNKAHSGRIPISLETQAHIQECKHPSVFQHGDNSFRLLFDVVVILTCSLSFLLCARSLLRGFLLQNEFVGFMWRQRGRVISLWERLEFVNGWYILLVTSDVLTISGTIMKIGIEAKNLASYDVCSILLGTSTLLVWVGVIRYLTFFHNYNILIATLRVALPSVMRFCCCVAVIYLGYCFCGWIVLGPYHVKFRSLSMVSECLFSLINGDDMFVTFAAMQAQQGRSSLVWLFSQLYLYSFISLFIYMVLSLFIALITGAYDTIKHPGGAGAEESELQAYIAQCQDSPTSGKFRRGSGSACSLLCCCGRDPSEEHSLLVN
#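 Tet-induced TRPML1-DL cells, 1,500 per well, cultured overnight, were loaded with a no-wash Ca2+ dye for 45–90 min. Calcium fluorescence was recorded on the FDSS for 110 s after compound addition, before the EC80 agonist (4 uM 54-4) was added.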
# TRPML1 blocker: inhibitors of human TRPML1 channel; Q9GZU1; AID 624415; 0.02% of 390,000 active; activity change, negative = inhibition, % (test concentration not listed); TRPML1-inducible cells, Ca2+ dye fluorescence, FDSS; hits give low values; inhibition of EC80 agonist-evoked calcium signal; in the data active means activity change below about -50%; inconclusive means about -30% to -50%; inactive means above about -30%;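 also: stimulus is agonist 54-4 at its EC80 concentration; % is scaled to controls: 0 for no effect and ±100 for the full control effect; compound concentration not given in the record; the text of the record puts the active cut at -80%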
#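 Tet-induced TRPML1-DL cells loaded with Ca8 no-wash calcium dye were read kinetically on FDSS. Compound addition was followed by EC80 agonist 54-4 (4 uM final); inhibition was read over 110 s.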
# gsp antagonist: antagonizes gsp, the McCune-Albright syndrome mutation; gsp-mutant cells, cAMP HTRF, 30 min; control for the full effect not named in the record; Potency, µM (series often up to 76.9 µM), inactives show top-dose activity change, negative = inhibition, most hits filed as inhibitors; 0.4% of 340,000 active; active = falling curve of any shape with a large fitted effect; inconclusive = falling curve, mostly with a smaller effect; inactive = flat or rising curve; cell line not stated here;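 also: intracellular cAMP measured with PDE inhibitor Ro 20-1724 present during compound exposure; potency is read from the fitted curve at half-maximal effect; % is scaled to controls: 0 for no effect and ±100 for the full control effect; nearly all actives have a fitted effect of over 65% in size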
#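 Measurement of cellular cAMP by homogeneous time-resolved fluorescence following a 30 min compound exposure at 37C. The PDE inhibitor […] was present throughout; the assay buffer was DPBS with 0.05% BSA and 0.005% Tween 20.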
# gsp ag: activates gsp, the McCune-Albright syndrome mutation; AID 624287; gsp mutant cells, cAMP HTRF, 30 min; control for the full effect not named in the record; 0.13% of 340,000 active; Potency, µM (titrated, usually from 76.9 µM), inactives show at the top dose activation (cAMP increase), actives largely listed as activators; active = well fitted activation curve with a large enough effect; inconclusive = small, poorly fitted or top-dose-only effect, or another doubt; inactive = no such curve, though single readings can be large or run the other way; cell line not stated here;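 also: phosphodiesterase inhibitor Ro 20-1724 added with compounds to block cAMP breakdown; potency is read from the fitted curve at half-maximal effect; nearly all actives have a fitted effect of over 60% in size; about a fifth of the inactives were tested at one dose only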
#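 Cells in DMEM/10% FBS with G418 were pretreated with compounds in DMSO plus […] (300 uM stock) for 30 min at 37C. cAMP was measured by HTRF (cAMP-d2 plus anti-cAMP antibody-K) after 30 min at room temperature.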
# Starred values were filed as active, the others as inactive; ? = inconclusive; nt = no result given; & = joins results of further samples; [ ] = remark or other dose.
Compound	ClpP mod	Menin-MLL FL inh	TRPML1 ag	TRPML1 blocker	gsp antagonist	gsp ag
CCOCC(=O)Nc1cc(C(=O)OC)ccc1C(=O)OC	?	0.0	-1.0	-0.9	-4.2%	-17.9%
COc1ccc(OC)c(NC(=O)Cn2c(=O)oc3cc(S(=O)(=O)NCc4ccccc4)ccc32)c1	0.3%	nt	0.6	27.9	nt	nt
CCN(CC(=O)Nc1ccc2c(c1)OCCO2)C(=O)c1ccccc1Br	2.1%	nt	-1.5	-0.2	7.6%	-2.4%
CCSc1nc2c(c(=O)[nH]1)C(C(C)C)C(C#N)=C(N)O2 (stereo unspecified)	-0.8%	0.0	1.6	-10.3	2.2%	-31.2%[inhibitor]
CC(=O)NN1C(=O)/C(=C\c2ccc(Cl)cc2)SC1=S	nt	-1.6	2.3	0.8	3.8%	4.9%[15.4 µM]
N#CC1=C(N)SC(N)=C(C#N)C1C1C=CCCC1 (stereo unspecified)	0.7%	9.4	-0.3	18.2	1.0%	-0.9%
Cc1cccn2c(=O)c(C=O)c(N3CCN(c4ccc(F)cc4)CC3)nc12	-0.5%	1.2	0.7	-9.6	-2.3%	-5.5%
Cn1cc(C(=O)C(=O)N2CCCC2)c2ccccc21	2.9%	0.6	0.3	-13.1	7.0%	1.4%[15.4 µM]
O=C(NCc1ccc(Cl)cc1)c1ccc(S(=O)(=O)N2CCCCC2)cc1	0.5%	nt	-1.0	-16.2	7.3%	5.3%
COc1ccc(S(=O)(=O)N2CCCC(C(=O)NCc3ccc4c(c3)OCO4)C2)cc1 (stereo unspecified)	nt	-0.3	1.4	28.6	-3.0%	-8.9%[15.4 µM]
Cc1ccc(-c2nnn(CC(=O)N(CC(=O)NC3CCCCC3)c3cccc(F)c3)n2)o1	nt	-0.3	-0.5	15.2	3.2%	-2.2%[15.4 µM]
CC[N+](C)(C)CCN(Cc1ccc(Cl)cc1)c1ccccn1	28.2µM*	1.4	0.3	18.2	3.1%	11.4%
Cc1ccc(-n2c(SCC(=O)NCC3CCCO3)nc3c(c2=O)SCC3)cc1 (stereo unspecified)	0.1%	1.9	0.8	-3.0	-32.1%	10.4%
Cc1cccc(C)c1NC(=O)C1(NC(=O)C2CCC(=O)N2)CCCCC1 (stereo unspecified)	1.3%	1.5	-0.5	4.4	14.8%	-20.3%
Cc1ccc(NC(=S)NCc2ccc(Cl)cc2)c(OC(F)F)c1	-0.5%	-0.3	2.5	-4.9	-0.9%	-7.0%[15.4 µM]
COc1ccc2c(c1)CCc1c(C(=O)Nc3ccn(Cc4ccc(C)cc4)n3)noc1-2	-2.4%	0.4	2.6	9.2	-9.9%	16.1%
O=C(NC(=S)N1CCN(c2ccc([N+](=O)[O-])cc2)CC1)c1ccccc1F	-1.7%	4.0	0.1	2.8	-12.4%	-6.1%
CCCCCCn1nc(C(=O)Nc2nc3c(s2)CCCC3)c2ccccc2c1=O	-4.3%	6.1	0.4	-14.7	-8.9%	1.7%
C[C@H](CO)N1C[C@H](C)[C@@H](CN(C)S(=O)(=O)c2ccccc2)Oc2c(NC(=O)Nc3ccc4c(c3)OCO4)cccc2C1=O	0.2%	nt	-0.7	12.1	?	nt
CC(C)(C)C(=O)Nc1cccc(-c2nnc(-c3cccc(NC(=O)C(C)(C)C)c3)o2)c1	83.5%	-1.0	-0.5	-5.6	-19.5%	-29.4%
CC1CCCCN1C(=S)NCc1ccccc1 (stereo unspecified)	-1.9%	7.2	-0.3	1.5	8.8%	-0.3%
COc1cccc(NC(=O)CSc2nc(O)c(C/C=C/c3ccccc3)c(=O)[nH]2)c1	-1.6%	nt	-0.1	8.0	nt	nt
CC(C)(C)OC(=O)N1CC=C2C(C#N)=C(N)C(C#N)(C#N)C(c3cccs3)C2C1 (stereo unspecified)	-7.1%	?	-0.5	21.4	4.2%	12.9%
CC1(C)OC2OC(C(=O)N/N=C/c3cc(Br)ccc3O)C3OC(C)(C)OC3C2O1 (stereo unspecified)	-20.4%	3.1	0.5	31.6	-10.4%	-57.1%[inhibitor]
COc1ccc(C2CC(c3ccccc3)Nc3nc(NC(=O)c4ccco4)nn32)cc1 (stereo unspecified)	-17.1%	-0.2	1.0	-3.1	5.6%	5.3%
COC(=O)c1ccc(Cn2cnc3c(sc4nc(N5CCOCC5)c5c(c43)CCCC5)c2=O)o1	28.2µM*	-5.4	1.2	4.0	14.5%	-9.9%
COc1ccccc1CN(Cc1nc2ccccc2c(=O)[nH]1)C(=O)Nc1ccc(C)cc1	0.8%	0.6	-0.4	-2.7	-26.0%	-50.2%[inhibitor]
CC1CN(C(=O)CCC(=O)NCCCN2CCN(Cc3ccccc3)CC2)c2cc(Cl)ccc2O1 (stereo unspecified)	1.0%	nt	-0.5	33.3	16.3%	0.2%
O=C(c1ccccc1Cl)N1CCc2ccccc2C1	-0.3%	-1.1	-0.2	-0.2	-23.3%	1.5%
Cc1nc2ccccc2c(=O)n1CCN1CCOCC1	0.0%	2.2	-0.5	-6.7	-3.9%	6.1%
NNC(=O)COc1ccccc1[N+](=O)[O-]	1.4%	-1.2	0.7	11.5	6.8%	10.6%
Cc1ccc(-c2cc(C(=O)NCC(c3ccccc3)N(C)C)c3ccccc3n2)o1 (stereo unspecified)	nt	nt	1.5	-9.1	3.0%	?
COc1ccccc1C1=NC(c2ccccc2)CN1c1ccccc1 (stereo unspecified)	nt	-0.9	2.1	-4.1	5.0%	?
COc1cccc2c(=O)n(CC(=O)N3CCCCC3)ccc12	4.0%	-2.7	-0.3	-12.8	9.8%	-56.3%[inhibitor]
COc1ccc(CN(C(=O)COc2ccc(C)c(C)c2)C2CCS(=O)(=O)C2)cc1OC (stereo unspecified)	-0.3%	5.1	-0.3	8.2	-2.8%	0.1%
CC(C)CCC(C)N=Cc1c(O)n(Cc2ccccc2)c(=O)c2ccccc12 (stereo unspecified)	-11.4%	8.4	0.7	78.3	-8.6%	9.7%
CCCCNC(=S)N1CCN(c2nc3ccccc3s2)CC1	2.4%	-2.9	0.6	-18.9	-13.7%	-60.4%[inhibitor]
CCOC(=O)c1c(/N=C/c2cccc([N+](=O)[O-])c2O)sc2c1CCC2	-2.0%	0.2	0.9	10.6	-19.8%	-8.9%
Cc1cc(-c2cc(C)c(N)cc2C)c(C)cc1N	nt	nt	-1.3	10.2	1.4%	-24.9%
COCCNC(=O)C(c1cccnc1)N(Cc1ccc(C)cc1)C(=O)Cn1nnc2ccccc21 (stereo unspecified)	nt	1.2	0.3	3.5	6.4%	-29.7%
O=C(CCNS(=O)(=O)c1ccc2[nH]c(=O)oc2c1)NCc1ccc(F)cc1	-0.8%	nt	-0.4	39.0	0.8%	?
CS(=O)(=O)c1ccccc1C(=O)Nc1ccc2sccc2c1	0.7%	1.3	0.2	-8.7	6.2%	-25.8%
COC(=O)C1C(O)=C(C=Nc2ccccc2)C(=O)CC1(C)C (stereo unspecified)	-4.7%	5.5	3.9	5.5	12.0%	-52.4%
O=C(C[C@@H]1C/C=C\C[C@H](NC(=O)OCC2c3ccccc3-c3ccccc32)C(=O)OC[C@@H]2CCCN2C1=O)N[C@H](CO)Cc1ccccc1	-4.0%	nt	-0.2	1.2	-1.2%	nt
O=C(O)c1ccc(NC2OC[C@@H](O)[C@H](O)[C@H]2O)cc1 (stereo partly specified)	-1.2%	nt	-0.5	6.2	-0.9%	nt
Cn1nnnc1SCC(=O)Nc1ccccc1Cc1ccccc1	-0.8%	-3.8	0.5	-6.5	8.1%	10.4%
Cc1ccc(C(=O)Nc2ccc(S(=O)(=O)O)c3cc(S(=O)(=O)O)cc(S(=O)(=O)O)c23)cc1NC(=O)c1cccc(NC(=O)Nc2cccc(C(=O)Nc3cc(C(=O)Nc4ccc(S(=O)(=O)O)c5cc(S(=O)(=O)O)cc(S(=O)(=O)O)c45)ccc3C)c2)c1	-3.2%	10.9&7.5&11.0&-14.8	-0.2	nt	nt	nt
Cc1cc(OC(C)C)c2c(-c3ccccc3)cc(=O)oc2c1	16.3%	-0.1	1.5	-24.3	6.2%	8.8%
CC(C)Cn1c(N)c(C(=O)CSc2nnc(-c3ccco3)n2C)c(=O)n(C)c1=O	-0.8%	nt	-0.3	-1.1	16.7%	-16.6%
Cc1ccccc1CN1CCCN(CC(=O)Nc2c(C)cccc2C)S1(=O)=O	-2.0%	nt	0.4	7.1	nt	nt

# (continued)
Compound	ClpP mod	Menin-MLL FL inh	TRPML1 ag	TRPML1 blocker	gsp antagonist	gsp ag
COc1ccc(C(=O)Cc2cc(OC)c(OC)cc2[N+](=O)[O-])cc1	1.2%	4.4	-0.3	7.3	3.3%	-1.3%
COc1ccc(Cl)cc1NC(=O)CN(C)C(=O)c1cc2ccccc2cc1O	-5.3%	nt	-0.4	14.8	?	-5.1%
O=C(Cc1ccccc1)OCC(=O)c1cccc([N+](=O)[O-])c1	2.3%	nt	-0.8	-5.0	8.9%	28.6%
CCCCNC(=O)CSc1nc2ccccc2c(=O)n1C1CCCC1	0.0%	5.1	0.3	16.1	-23.4%	-33.6%[inhibitor]
C=CCOC(=O)COc1ccc2c(C)c(C)c(=O)oc2c1C	15.8µM*	1.7	-0.8	0.1	-14.0%	-10.7%
COc1cc2c(=O)c(S(=O)(=O)c3ccc(F)cc3)cn(Cc3ccccc3C)c2cc1OC	?	nt	2.3	-8.9	nt	nt
Cc1c(-c2ccc(F)cc2)nc(N)c(C#N)c1-c1cccs1	10.3%	0.2	1.6	7.5	28.3%	-14.5%
Cc1cccc(Nc2nccc(N(C)C)c2C#N)c1	nt	-2.4	-0.5	22.6	4.8%	?
CC(C)Nc1ncnc2c1ncn2[C@H]1CN(C2CCCC2)C[C@@H](CO)O1	-1.5%	nt	-0.1	-5.1	nt	nt
CC1(C)CC(CC(=O)Nc2nccs2)(c2ccccc2)CCO1 (stereo unspecified)	-0.1%	4.6	-0.8	-5.0	-18.0%	5.6%[15.4 µM]
O=C(NN1C(=O)C2C3C=CC(C3)C2C1=O)C(O)c1ccccc1 (stereo unspecified)	0.9%	-3.2	0.8	11.3	12.6%	-16.8%
CCc1noc(C)c1C(=O)Nc1nc(-c2ccccc2)c(C(C)=O)s1	-0.3%	nt	2.8	13.1	?	0.7%
COc1ccc(CNC(=O)CCc2c(C)nc3nc(CNC(=O)OC(C)(C)C)nn3c2C)cc1	1.6%	nt	1.6	2.8	nt	nt
Cc1ccsc1C(=O)N1CCCC(CCC(=O)N2CCN(c3ccccn3)CC2)C1 (stereo unspecified)	4.1%	3.2	1.1	5.7	-11.4%	-2.7%
CCCCCN(C(=O)NC(=O)Nc1ccc(C)cc1)S(=O)(=O)c1ccccc1	2.8%	8.1	0.6	-12.0	18.0%	1.0%
